HIV TAR-Tat: HIV-1 TAR-Tat binding disruption; HIV-1 TAR RNA, Tat peptide displacement FRET; hits give high values; z-score (concentration not given with the values); hit rate 0.6% among 100,000; AID 1259389;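 note: score is relative to mean and SD of negative controls; some compounds called inactive have numbers as strong as hits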
CDC25B CDK2 inh: human CDC25B-CDK2/CyclinA binding inhibition; P30305+P24941; HTRF CDC25B-CDK2/CyclinA binding, anti-His/anti-Flag; hits give high values; z-score (concentration not given with the values); hit rate 0.72% among 94,000;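 note: score is relative to mean and SD of negative controls; strong numbers were not always called active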
Numbers without * were called inactive; · = not tested or not shown.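 Rule for the calls: active = z-score from 3 up in half or more of its runs; inactive = the rest.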

Values run as follows: HIV TAR-Tat | CDC25B CDK2 inh
- CNC(=O)c1c(NC(=O)C(C)C)sc2c1CCC2
→ 0.21 | ·
- CCCOc1ccc(N2C(=O)CC(N3CCN(c4ccc(Cl)cc4)CC3)C2=O)cc1 (configuration not stated)
→ · | -2.9
- CCC1CN(C(=O)Nc2cc(Cl)c(OC)cc2OC)c2ccccc2S1 (configuration not stated)
→ 0.79 | ·
- NC(=S)NCc1ccncc1
→ · | -1.1
- O=C(CSc1nc2c(c(=O)[nH]1)CCCC2)Nc1ccc(F)cc1
→ 2 | -0.76
- CCSc1ncc2c(=O)n(CC(=O)Nc3ccc4c(c3)OCO4)cnc2n1
→ 1.7 | ·
- Cc1ccccc1C1CC(c2cccs2)Nc2ncnn21 (configuration not stated)
→ · | -1.5
- C#CCOc1ccc(C2C3=C(CCCC3=O)N(C)C3=C2C(=O)CCC3)cc1
→ 1.1 | 0.3
- COc1ccc(-c2ccc(-c3noc(-c4cc(OC)cc(OC)c4)n3)c(OC)n2)cc1
→ -0.52 | -0.65
- CC(C)CN(CC(C)C)C(=O)COCc1cc(-c2ccc3c(c2)OCO3)on1
→ -1.4 | ·
- CC1=C(C(=O)NCCCN2CCCCC2C)C2(CCN(S(C)(=O)=O)CC2)OC1=O (configuration not stated)
→ 0.72 | ·
- Nc1ncn2c(n1)nc1ccccc12
→ · | -2.3
- CCC(C)N1CCN(S(=O)(=O)c2ccc3c(c2)NC(=O)CO3)CC1 (configuration not stated)
→ 1.8 | ·
- COc1ccc(Nc2c(-c3cc(C)c(C)cc3C)c(=O)c2=O)cc1OC
→ 1.8 | ·
- Cc1ccc(C2N3CC4(C)CN2CC(c2ccccc2)(C3)C4=O)cc1 (configuration not stated)
→ 0.08 | 0.4
- NC(=O)CSC1=Nc2ccccc2C2=NC(CC(=O)NC3CCCCC3)C(=O)N12 (configuration not stated)
→ · | -2.3
- Cc1nc(C)c(S(=O)(=O)NCc2ccc3c(c2)CCO3)s1
→ · | -2.9
- CC1CCN(c2nc3c(S(=O)(=O)c4ccccc4)nnn3c3ccsc23)CC1
→ -0.23 | ·
- NNC(=O)CN1C(=O)CSc2ccc(C(F)(F)F)cc21
→ · | -2.4
- Cc1ccc(CNC(=O)c2cc3n(n2)CC(C)(C(=O)NC2CCCCC2)N(C)C3=O)o1 (configuration not stated)
→ -5.1 | ·
- CCC1(C)CC(=O)c2c(ccc3oc(C(=O)N4CCCCC4)c(C)c23)O1 (configuration not stated)
→ -0.24 | -2.2
- NNC(=O)CS(=O)(=O)CS(=O)(=O)CC(=O)NN
→ · | -2.8
- Cc1cc(Nc2ccc(Br)cc2)n2cnnc2n1
→ 0.8 | -1.2
- CNC(=O)C1CCN(S(=O)(=O)c2c(C)noc2/C=C/c2ccco2)CC1
→ 2.6 | ·
- COc1ccc(OC)c(C2C(C(=O)OC(C)C)=C(C)Nc3nc4ccccc4n32)c1 (configuration not stated)
→ -1.6 | -1.5
- CC(C1CC1)N(C(=O)c1ccccc1)c1ccccc1 (configuration not stated)
→ · | 0.84
- CCOC(=O)N1CCN(C2CC(=O)N(c3ccc(Cl)cc3)C2=O)CC1 (configuration not stated)
→ 2.7 | -0.76
- CC1CCC(NC(=O)c2cc3n(n2)CC(C)(C(=O)NC2CCCCC2)N(C)C3=O)CC1 (configuration not stated)
→ 1.3 | ·
- O=C(Cn1cc2c(n1)CCCC2)Nc1ccccc1Br
→ 0.31 | -0.58
- CCc1ccc(C(C)NC(=O)c2oc3c(c2C)-c2nc(C)sc2CC3)cc1 (configuration not stated)
→ 2.3 | ·
- CC1(C)CC(=O)C=C(SCCS(=O)(=O)c2ccc(Cl)cc2)S1
→ · | -0.26
- CCOC(=O)c1sc2cccc(F)c2c1S(=O)(=O)Nc1ccccc1F
→ -0.94 | ·
- CCc1cc2c3c([nH]c2cc1S(=O)(=O)Nc1ccc(Br)cc1F)CCCC3=O
→ 1.2 | ·
- Cc1cc(C)nc(N2N=C(CSc3ccc(Cl)cc3)CC2=O)n1
→ 0.65 | -1.5
- Cc1ccc(N(C)S(=O)(=O)c2cc(-c3n[nH]c(=O)c4c3CCCC4)ccc2C)cc1
→ 0.65 | 3.2
- Cc1ccc2cc3cc(C(=O)NC(C)c4ccc5c(c4)OCCO5)sc3nc2c1 (configuration not stated)
→ · | -3.4
- COc1cc(C2SCCS2)cc(Br)c1Oc1ncccc1[N+](=O)[O-]
→ · | 0.72
- Cc1nc2sccn2c(=O)c1S(=O)(=O)N(C)C1CCCCC1
→ -2.4 | ·
- CCOC(=O)c1c(NC(=O)c2snnc2C)sc2c1CCCC2
→ 0.45 | -0.74
- COc1ccc(/C=C/c2nn3c(C(C)(C)C)nnc3s2)cc1
→ 0.93 | 2
- CSc1cccc(NC(=O)C2=C(C)C(=O)OC23CCC(C)CC3)c1 (configuration not stated)
→ 0.33 | -1.4
- CCOC(=O)c1c(C)[nH]c(C(=O)CSc2nc(C)nc3c2cnn3-c2ccccc2)c1C
→ · | -1.3
- O=C1OC2(C(=O)c3ccccc3C2=O)/C(=C(\O)c2ccc(Cl)cc2)C1=O
→ · | -0.55
- O=C(Nc1ccc(C(=O)NC2CCS(=O)(=O)C2)cc1)C1=CSCCO1 (configuration not stated)
→ 1.8 | ·
- CCOCCCNC(=O)Cn1ncn2cccc2c1=O
→ -0.85 | -0.94
- Cc1cc(C)cc(NC(=O)CSCc2cc(=O)n3ccsc3n2)c1
→ 0.43 | ·
- O=C(CSC1=NCCCCC1)c1cccc([N+](=O)[O-])c1
→ · | -1.8
- CC1CC(C)CN(C(=O)Cn2cnc3c(nc4n3CCCCC4)c2=O)C1 (configuration not stated)
→ -0.27 | ·
- CCOC(=O)c1cc(S(=O)(=O)N2CCN(CC)CC2)cn1C
→ -0.16 | -0.93
- Clc1ccccc1CNc1ncnc2sc3c(c12)CCCC3
→ · | -3.6

Following part:
Values run as follows: HIV TAR-Tat | CDC25B CDK2 inh
- CN(C)CCCNc1sc(-c2ccccn2)c([N+](=O)[O-])c1[N+](=O)[O-]
→ · | 4.5
- N#Cc1c(NC(=O)CSc2nnnn2-c2ccccc2)sc2c1CCCC2
→ 0.04 | -1.4
- COC(=O)/C(=C/c1ccccc1)c1ccccc1
→ · | -1.2
- CCOc1ccc(C2c3c(oc4ccccc4c3=O)C(=O)N2c2nc(C)c(C)s2)cc1OC (configuration not stated)
→ 0.53 | -1.1
- COc1cc(OC)c(NS(=O)(=O)c2cc(-c3cnc(C4CC4)o3)ccc2C)cc1Cl
→ 1.5 | ·
- COc1ccc(N2C(=O)CSC2c2ccc(Cl)cc2)c(OC)c1 (configuration not stated)
→ · | -1.8
- NC(=O)Cn1c(=O)n(Cc2ccc(F)cc2)c(=O)c2cccnc21
→ 0.63 | 1.6
- NCCCC(N)CC(=O)NCC1NC(=O)C(CO)NC(=O)C(N)CNC(=O)C(C2CCN=C(N)N2)NC(=O)/C(=C\NC(N)=O)NC1=O (configuration not stated)
→ 1.8 | ·
- c1nc(NC2CCCCC2)c2[nH]cnc2n1
→ · | -0.61
- O=C(CS(=O)(=O)c1ccc(Cl)cc1)Nc1nc(-c2ccc3c(c2)OCO3)cs1
→ 1.3 | ·

4 entries from above, set out differently:
> NNC(=O)CN1C(=O)CSc2ccc(C(F)(F)F)cc21
  HIV TAR-Tat: · | CDC25B CDK2 inh: -2.4

> COC(=O)/C(=C/c1ccccc1)c1ccccc1
  HIV TAR-Tat: · | CDC25B CDK2 inh: -1.2

> CCC1(C)CC(=O)c2c(ccc3oc(C(=O)N4CCCCC4)c(C)c23)O1 (configuration not stated)
  HIV TAR-Tat: -0.24 | CDC25B CDK2 inh: -2.2

> O=C(CS(=O)(=O)c1ccc(Cl)cc1)Nc1nc(-c2ccc3c(c2)OCO3)cs1
  HIV TAR-Tat: 1.3 | CDC25B CDK2 inh: ·

(cont.)
Values run as follows: HIV TAR-Tat | CDC25B CDK2 inh
- O=C(C1CCN(C(=O)C2(n3cccc3)CCCCC2)CC1)N1CCCCC1
→ 0.71 | -1.8
- CCC(=O)N1c2ccc(S(=O)(=O)CCC(=O)N3CCn4c3nc3ccccc34)cc2CC1C (configuration not stated)
→ · | -0.81
- Cn1c(C(=O)N2CCN(C(=O)c3ccco3)CC2)cc2sccc21
→ · | -2.8
- COc1cc(CN2CCN(C3CCCCCC3)CC2)cc(OC)c1OC
→ · | -1.3
- CN(C(=O)CSc1nnc(-c2cccs2)o1)c1ccccc1
→ 3 | -0.34
- CCOC(=O)C(O)(c1ccc(NC(=O)Nc2ccc(Cl)cc2)cc1)C(F)(F)F (configuration not stated)
→ · | 0.55
- COc1cccc(CC(=O)NNC(=O)NC(=O)c2ccccc2Cl)c1
→ · | -2.1
- COC(=O)c1cc(S(=O)(=O)NCCN(Cc2ccco2)C2CCCC2)cn1C
→ 0.76 | ·
- CCSc1nnc(NC(=O)CN(C)S(=O)(=O)c2ccc3c(c2)c(=O)n(C)c(=O)n3C)s1
→ · | -2.4
- CC(CCc1ccccc1)Nc1nn2nnnc2c2ccccc12 (configuration not stated)
→ -0.02 | -1.9

Sorted by SMILES length (falling): some entries from above
Values run as follows: HIV TAR-Tat | CDC25B CDK2 inh
- CCSc1nnc(NC(=O)CN(C)S(=O)(=O)c2ccc3c(c2)c(=O)n(C)c(=O)n3C)s1
→ · | -2.4
- CCC(=O)N1c2ccc(S(=O)(=O)CCC(=O)N3CCn4c3nc3ccccc34)cc2CC1C (configuration not stated)
→ · | -0.81
- O=C(C1CCN(C(=O)C2(n3cccc3)CCCCC2)CC1)N1CCCCC1
→ 0.71 | -1.8
- CN(C(=O)CSc1nnc(-c2cccs2)o1)c1ccccc1
→ 3 | -0.34

(list continues)
Values run as follows: HIV TAR-Tat | CDC25B CDK2 inh
- O=C1c2cccnc2C(=O)N1Cc1cccs1
→ -0.47 | 0.07
- COc1cc(/C=C/C(=O)NCc2ccc3c(c2)OCO3)cc(OC)c1OC
→ · | -1.6
- Cc1cc(-c2nnc(SCc3cc(=O)n4ccsc4n3)o2)nn1C
→ 1 | ·
- CC1CSc2ccc(S(=O)(=O)N(Cc3cccs3)C3CCCC3)cc2NC1=O (configuration not stated)
→ 2.1 | ·
- COC(=O)c1ccc(CSc2nc3ccncc3n2Cc2ccccc2)cc1
→ 1 | -2.5
- CSc1sc(C#N)c(C)c1C(=O)/C=C/N(C)C
→ · | -2
- COc1ccc(-c2cc(=O)n(-c3nc4ccccc4s3)[nH]2)cc1OC
→ 1.5 | ·
- CCOC(=O)C1C(c2cccc(F)c2)NC(=O)NC1(O)C(F)(F)F (configuration not stated)
→ · | -1
- COc1ccccc1N1C(=O)C2CC=CCC2C1=O (configuration not stated)
→ · | -0.69
- CCOCCCNc1nc(C)nc2oc(C)c(C(=O)OCC)c12
→ 0.01 | ·
- CCOc1ccccc1Nc1nc2ccccc2n2c(CC)nnc12
→ -0.05 | -0.97
- CC(C)(C)NCC(O)COc1ccccc1 (configuration not stated)
→ 2.6 | -1.9
- CC1(NC(=O)NC2CCS(=O)(=O)C2)CCS(=O)(=O)C1 (configuration not stated)
→ 0.75 | 0.63
- Cn1cnc([N+](=O)[O-])c1Sc1n[nH]c(=O)n1-c1ccccc1C(F)(F)F
→ · | -3.9
- COc1ccc(NC2c3ncccc3C(=O)N2Cc2cccs2)cc1Cl (configuration not stated)
→ 11 | 0.3
- CC(=O)N1CC(C)Sc2ccc(S(=O)(=O)Nc3c(C)cc(C)cc3C)cc21 (configuration not stated)
→ 1.7 | ·
- Cc1c(-c2nc(-c3ccccc3)no2)nnn1-c1ccc(F)cc1F
→ -0.43 | ·
- CC(C1OC(C)(C)C(O)C1O)[C@@H]1CC[C@]2(C)C3=CCC4C(C)(C)C(=O)CC[C@]4(C)C3CC[C@@]12C (some centres not stated)
→ 1.4 | ·
- O=C(O)CCc1nc(CS(=O)(=O)c2ccc(Cl)cc2)no1
→ 0.38 | -0.47
- O=c1[nH]cnc2onc(-c3cccc(F)c3)c12
→ 0.56 | -1.1
- Cc1nn(C(C)C(=O)Nc2cccc(F)c2)c(=O)c2c1sc1ccccc12 (configuration not stated)
→ 2.1 | -0.29
- O=C(Nc1noc2ccccc12)c1ccc(F)cc1
→ 2.5 | -1.4
- COCCNC(=O)C1CCCN(c2nn3c(=O)c4c(nc3s2)CCCC4)C1 (configuration not stated)
→ 1.6 | ·
- Cc1ccsc1CCNC(=O)C1CCC(Cn2c(=O)[nH]c3ccsc3c2=O)CC1 (configuration not stated)
→ 0.32 | ·
- CCSc1nnc2nc3c4ccccc4c4ccccc4c3nn12
→ · | -1.8
- CCCNc1nc2c(c(=O)[nH]c(=O)n2C)n1CCO
→ 2.5 | 0.53
- CC(C)CCNC(=O)CN(C)S(=O)(=O)c1cccc2nsnc12
→ · | -1.5
- NS(=O)(=O)c1ccc(NNC(=O)c2cccs2)cc1
→ · | -2.7
- O=C(O)CCc1nnc2ccc(NCc3ccccc3Cl)nn12
→ 1.2 | -0.87
- CC(=O)Nc1c2n(c3ccc(F)cc13)CC(C)(C(=O)NC1CCCC1)N(Cc1ccccn1)C2=O (configuration not stated)
→ 0.16 | ·
- Cc1cccc(-c2c3c(=O)n(C)c(=O)n(C)c3c3n2-c2ccccc2NC3c2ccco2)c1 (configuration not stated)
→ 0.38 | -1.2
- CC(C)OCC1Cn2c(nc3c2c(=O)n(C)c(=O)n3C)O1 (configuration not stated)
→ · | -0.28
- CC1Cc2cc(S(=O)(=O)N3CCCC(C(=O)NCC4CCCO4)C3)ccc2N1C(=O)C1CC1 (configuration not stated)
→ 1.2 | ·
- CC1CCCC(NC(=O)Cn2c(=O)oc3cc(S(=O)(=O)NC4CCCC4)ccc32)C1C (configuration not stated)
→ · | -2.9
- O=C(O)CNC1CCS(=O)(=O)C1 (configuration not stated)
→ -0.22 | -0.04

Assay outcomes (PubChem)

Rows were taken by chance. Share with any hit: about 0.94%.
